# Screening data (PubChem BioAssay)
# PINK1 expr mod: A Quantitative High throughput Screen to Identify Chemical Modulators of PINK1 Expression; PINK1 immunofluorescence, high-content cytometry, 24 h; Potency, µM (top dose mostly 76.6 µM), for the others: at the highest dose activation (PINK1 increase), usual class: activators; actives 0.2% (n = 410,000); AID 624263, 2012; active = well fitted activation curve with a large enough effect; inconclusive = small, poorly fitted or top-dose-only effect; inactive = flat fitted curve, though single readings scatter; cell line not stated here;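 also: potency is read from the fitted curve at half-maximal effect; % of control where 0% means no effect; nearly all actives have a fitted effect of over 65% in size; a mitochondrial uncoupler was the plate control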
#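 Readout is PINK1 immunofluorescence, quantified alongside mitochondrial, cell and nuclear markers by laser-scanning microplate cytometry. Cells from a stable line were exposed to compound titrations (5 concentrations) for 24 hours, with CCCP controls.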
# Sfp inh: qHTS Assay for Inhibitors of Bacillus subtilis Sfp phosphopantetheinyl transferase (PPTase); Biochemical Sfp PPTase activity, qHTS; Potency, µM, without a hit: max response, negative = inhibition, actives largely listed as inhibitors; actives 3.5% (n = 310,000); AID 1490, 2009; active = well fitted inhibition curve with a large enough effect; inconclusive = small, poorly fitted or top-dose-only effect, or another doubt; inactive = no such curve, though single readings can be large or run the other way;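 also: the enzyme is Sfp with the accession as filed and its product quenches rhodamine fluorescence; potency is read from the fitted curve at half-maximal effect; 0% = enzyme reaction without inhibitor and -100% = no enzyme wells; top concentration of the series not given in the record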
#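 After 15 min at room temperature with compound, 15 nM Sfp received 5 uM rhodamine-CoA plus 12.5 uM BHQ-2-ybbR (50 mM Hepes pH 7.6, 10 mM MgCl2). Rate came from the fluorescence difference over 30 min, ex 525/em 598 nm.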
# Menin MLL FP FL: qHTS Assay for Inhibitors Targeting the Menin-MLL Interaction in MLL Related Leukemias: Competition With Fluorescein Labeled MLL-derived Peptide. FP activity change, % at 61.4 µM. Fluorescence polarization, fluorescein-MLL peptide displacement from menin. 290,000 tested, under 10 active; inconclusive = falling polarisation curve, or a change in total fluorescence; inactive = total fluorescence flat and polarisation flat or rising; no compound was filed as active; the % refers to the polarisation; negative = inhibition;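 also: % of control where 0% means no effect; inhibitors lower the polarisation; unlabelled MLL peptide was the positive control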
# ClpP mod: qHTS Assay for Activators of ClpP; ATP-dependent Clp protease proteolytic subunit (Bacillus subtilis (strain 168)), P80244; purified B. subtilis ClpP, FRET peptide cleavage, 20 min; Potency, µM (series often up to 57.5 µM), for the others: at the top dose activity change, negative = active; actives 1.9% (n = 340,000); AID 651965, 2013; active = well fitted falling curve with a large enough effect; inconclusive = small, poorly fitted or top-dose-only effect; inactive = no such curve, though single readings can be large or run the other way; also: potency is read from the fitted curve at half-maximal effect; the source files actives as falling curves though it sought activators and does not explain the sign; nearly all actives have a fitted effect of over 65% in size; many hits overshoot -100%
# Target sequence (P80244 whole entry, looked up): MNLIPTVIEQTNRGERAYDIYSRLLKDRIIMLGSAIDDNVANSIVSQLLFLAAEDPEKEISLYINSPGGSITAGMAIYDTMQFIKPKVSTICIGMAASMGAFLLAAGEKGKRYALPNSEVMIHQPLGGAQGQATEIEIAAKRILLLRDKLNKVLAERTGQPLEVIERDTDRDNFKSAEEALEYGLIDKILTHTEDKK
#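 FRET quenching reversal measured ClpP activation: 10 microg/mL B. subtilis ClpP at pH 8 with the FRET-FV decapeptide, read at 430 nm after 320 nm excitation. The 20-min minus 0-min signal was scaled between DMSO/no-enzyme wells and ADEP (5.8 microM final).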
# * marks the source's active call; other numbers are inactive results; u = inconclusive; x = no result given; & = joins results of further samples; [ ] = another dose, or the depositor's remark. The list is partial; count on the stated rates, not on these rows.
no. | molecule | PINK1 expr mod | Sfp inh | Menin MLL FP FL | ClpP mod
1 | O=C1c2ccc(O)c(O)c2C(=O)c2c(O)ccc(O)c21 | x | -55.6% | x | x
2 | O=C(O)[C@H]1[C@H]2C[C@H]3c4[nH]c5ccccc5c4CCN3C[C@@H]2CC[C@@H]1O | x | 16.6% | u | x
3 | CC(O)CN(C)C (stereo not given) | x | 29.0% | 3.4 | x
4 | CC1(C)O[C@@H]2C[C@@H]3[C@H]4C[C@@H](F)C5=CC(=O)C=C[C@]5(C)[C@@]4(F)[C@@H](O)C[C@]3(C)[C@]2(C(=O)CO)O1 | x | 11.9% | 1.0 | x
5 | Cc1oc(=O)oc1CN1CCN(c2cc3c(cc2F)c(=O)c(C(=O)O)c2n3C(C)S2)CC1 (stereo not given) | x | 6.4% | -0.7 | x
6 | COc1ccc(C2=NC(c3ccc(Cl)cc3)C(c3ccc(Cl)cc3)N2C(=O)N2CCNC(=O)C2)c(OC(C)C)c1 (stereo not given) | x | -22.1% | -0.9 | x
7 | C/C=C\C(=O)N(CC)c1ccccc1C | x | 18.8% | 0.8[24.8 µM] | x
8 | Cc1c(I)c(=O)n(-c2ccccc2)n1C | x | 19.1% | -5.1 | x
9 | C=CC1=C(C(=O)O)N2C(=O)[C@@H](NC(=O)C(N=O)c3csc(N)n3)[C@H]2SC1 (stereo not given in full) | x | 31.6µM* | 3.4 | x
10 | CCC[C@H](N[C@@H](C)C(=O)N1[C@@H]2CCCC[C@H]2C[C@H]1C(=O)O)C(=O)OCC | x | 11.3% | -1.6 | x
11 | CC[C@H](Cc1c(I)cc(I)c(N)c1I)C(=O)O | x | 17.7% | -0.3[24.8 µM] | x
12 | CN(C(=O)CCCOc1ccc2[nH]c(=O)ccc2c1)C1CCCCC1 | x | 31.9%&14.1% | 4.3&-5.0 | x
13 | CC(=O)O[C@@]1(C(C)=O)CCC2C3C=C(Cl)C4=CC(=O)C5CC5[C@@]4(C)C3CC[C@]21C (stereo not given in full) | x | -4.9% | -0.3 | x
14 | COc1cc(O)c2c(=O)cc(-c3ccc(OC)c(-c4c(O)cc(O)c5c(=O)cc(-c6ccc(O)cc6)oc45)c3)oc2c1 | x | -1.3% | u | x
15 | O=C(O)c1ccc[n+]([O-])c1 | x | 2.0% | u | x
16 | CC[C@H](C)C(N)C(=O)O (stereo not given in full) | x | 3.3% | -7.7 | x
17 | CCC(=O)O | x | 25.3% | 0.7 | x
18 | C=CC1=C(C(=O)O)N2C(=O)C(NC(=O)/C(=N\O)c3csc(N)n3)C2SC1 (stereo not given) | x | -20.6% | 1.3 | x
19 | CCC1Nc2cc(Cl)c(S(N)(=O)=O)cc2S(=O)(=O)N1 (stereo not given) | x | 8.3% | -0.5 | x
20 | Cc1cc(NS(=O)(=O)c2ccc(N)cc2)nc(C)n1 | x | 7.7% | 0.5 | x
21 | O=C(O)CNC(=O)c1ccccc1I | x | 2.6%&8.1% | -2.1&2.8 | x
22 | Cn1c(=O)c2[nH]c(Br)nc2n(C)c1=O | x | 4.8% | -0.4 | x
23 | CCC(C)[C@@H](N)C(=O)O (stereo not given in full) | x | -17.9%&-2.7%&-18.0% | 0.1&4.4 | x
24 | Cc1c(C(=O)NCCO)[n+](=O)c2ccccc2n1[O-] | x | -13.0% | 2.0 | x
25 | Cn1c(O)c(N=NC(N)=S)c2ccccc21 | x | u | 1.0 | x
26 | CC(C)C1C(=O)N(S(C)(=O)=O)[C@H]2CCN(C(=O)/C=C/CN3CCCCC3)[C@@H]12 (stereo not given in full) | x | -1.9% | 0.3 | x
27 | COc1ccc(S(=O)(=O)N2c3ccc(Cl)cc3[C@](O)(c3ccccc3Cl)[C@@H]2C(=O)N2CCC[C@H]2C(N)=O)cc1OC | x | u | 5.1&-0.5 | x
28 | C[C@@H](N)C1CCC(C(=O)Nc2ccncc2)CC1 (stereo not given in full) | x | 19.1%&16.0%&5.7% | 4.3&-3.4 | x
29 | CN(C)CCOC(=O)[C@@H](c1ccccc1)C1(O)CCCC1 | x | 34.5%[activator] | 1.5[24.8 µM] | x
30 | CCCN[C@@H](C)C(=O)Nc1c(C)csc1C(=O)OC | x | 8.4% | -1.4[24.8 µM] | x

# Entries listed above marked active in Sfp inh.
no.	smiles	PINK1 expr mod	Sfp inh	Menin MLL FP FL
9	C=CC1=C(C(=O)O)N2C(=O)[C@@H](NC(=O)C(N=O)c3csc(N)n3)[C@H]2SC1 (stereo not given in full)	x	31.6µM*	3.4

# Remaining list, next part.
no. | molecule | PINK1 expr mod | Sfp inh | Menin MLL FP FL | ClpP mod
31 | Cc1nc(-c2ccc(Cl)cc2)oc1COC(C)(C)C(=O)O | x | 23.3% | -2.9 | x
32 | CC(=O)C1CCC2C3CC(C)C4=CC(=O)CC[C@@]4(C)C3C(O)C[C@@]12C (stereo not given in full) | x | -5.5% | 0.3 | x
33 | Cc1ccccc1OC[C@H](O)CO | x | 27.8% | -6.5[24.8 µM] | x
34 | Cc1ccc(S(=O)(=O)NC(=O)NC2CCCCCCC2)cc1 | x | 10.9% | -3.2 | x
35 | O=C(CS(=O)Cc1ccco1)NCC=CCOc1cc(CN2CCCCC2)ccn1 (stereo not given) | x | -7.3% | -1.6 | x
36 | O=c1[nH]c2cc(C(F)(F)F)c(N3CCOCC3)cc2n(CP(=O)(O)O)c1=O | x | 22.8% | 4.2 | x
37 | CCOC(=O)C(CCc1ccccc1)NC(C)C(=O)N1Cc2ccccc2CC1C(=O)O (stereo not given) | x | -10.7% | -2.5 | x
38 | O=C(O)CCC/C=C\C[C@@H]1[C@@H](CC[C@@H](O)CCc2ccccc2)[C@H](O)C[C@@H]1O | x | 0.7% | 0.2 | x
39 | Cc1cc(Nc2cc(N3CCN(C)CC3)nc(Sc3ccc(NC(=O)C4CC4)cc3)n2)n[nH]1 | -2.0% | x | x | x
40 | COc1cc(C(c2c(C)[nH][nH]c2=O)c2c(C)[nH][nH]c2=O)ccc1OC(=O)c1ccccc1F | -0.2% | x | x | 0.2%
41 | Cc1[nH]n2c(=O)cc(-c3ccc(Cl)cc3)nc2c1-c1ccccc1 | 8.6% | x | x | 4.3%
42 | COc1ccc(CC(=O)NCC(c2cccs2)S(=O)(=O)c2ccc(Cl)cc2)cc1 (stereo not given) | 1.5% | x | x | -0.9%
43 | COc1ccc(-n2ccn(CC(=O)Nc3ccc(C)c(C)c3)c(=O)c2=O)cc1OC | -0.6% | x | x | -15.8%
44 | O=C(CC1N=C2c3ccccc3N=C(SCc3ccc(F)cc3)N2C1=O)NC1CCCCC1 (stereo not given) | 1.5% | x | x | 0.5%
45 | CCOC(=O)N1CCc2c(sc3c2c(=O)n(Cc2ccccc2)c(=O)n3CC(=O)Nc2ccc(F)cc2)C1 | 0.6% | x | x | -1.1%

# Full records, looked up by structure:
# `Cc1cc(Nc2cc(N3CCN(C)CC3)nc(Sc3ccc(NC(=O)C4CC4)cc3)n2)n[nH]1` is listed as PINK1 expr mod = -2.0%; Sfp inh = x; Menin MLL FP FL = x; ClpP mod = x
# `O=C(CC1N=C2c3ccccc3N=C(SCc3ccc(F)cc3)N2C1=O)NC1CCCCC1` (stereo not given) is listed as PINK1 expr mod = 1.5%; Sfp inh = x; Menin MLL FP FL = x; ClpP mod = 0.5%
# `O=c1[nH]c2cc(C(F)(F)F)c(N3CCOCC3)cc2n(CP(=O)(O)O)c1=O` is listed as PINK1 expr mod = x; Sfp inh = 22.8%; Menin MLL FP FL = 4.2; ClpP mod = x

# More results follow.
no. | molecule | PINK1 expr mod | Sfp inh | Menin MLL FP FL | ClpP mod
46 | CCOCCCNC(=O)C(=O)Nc1c2c(nn1-c1ccc(OC)cc1)CSC2 | 0.2% | x | x | 2.3%
47 | CCc1nnc(NC(=O)CSc2nc3c([nH]c4ccccc43)c(=O)n2-c2ccc(OC)cc2)s1 | 4.1% | x | x | u
48 | COc1ccc(CNC(=O)C2CCCN(c3nnc(C)c4c(C)n(-c5ccc(C)cc5)nc34)C2)cc1 (stereo not given) | 0.0% | x | x | u
49 | Cc1ccc(C)c(NC(=O)Cn2cc(C(=O)c3ccco3)c3ccccc32)c1 | -0.2% | x | x | u
50 | CCN1CCN(CCCNC(=O)c2cc3c(s2)-c2c(C)cccc2OC3)CC1 | 0.8% | x | x | 3.7%
51 | CCCNC(=O)C1CCC(Cn2c(=O)c3sccc3n(CC(=O)NCc3ccccc3)c2=O)CC1 (stereo not given) | -0.7% | x | x | 0.5%
52 | O=C(NCc1ccco1)c1ccc2c(c1)N(Cc1cccc(Cl)c1)C(=O)c1ccccc1S2=O (stereo not given) | -0.3% | x | x | -1.4%
53 | COc1ccc(CCNc2nc(SCc3ccccc3Cl)nc3ccccc23)cc1OC | 0.1% | x | x | -1.5%
